From PubChem BioAssay
miR-21 reporter = qHTS Assay for Modulators of miRNAs and/orActivators of miR-21; HeLa miR-21 FLuc reporter, luciferase, 48 h; Potency, µM (top dose mostly 38.3 µM), without a hit: at the top dose reporter change, positive = more light; 340,000 tested, under 10 active; AID 2288, 2010; active = well fitted rising curve with a large enough effect; inconclusive = small, poorly fitted or top-dose-only effect; inactive = no such curve, though single readings can be large or run the other way;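 note: % of control where 0% means no effect; miR-21 action dims this reporter so a rising signal means less miR-21 action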
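HeLa cells endogenously expressing miR-21, stably carrying CMV-driven firefly luciferase with a downstream miR-21 binding site, 2000 cells/well. Titrations up to approximately 40 uM, 48 hours; luciferase luminescence read.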
Rango dissoc inh = qHTS Assay for Inhibitors of RanGTP induced Rango (Ran-regulated importin-beta cargo) - Importin beta complex dissociation. Snurportin-1 (Homo sapiens) + GTP-binding nuclear protein Ran (Homo sapiens) + Importin …. Biochemical FRET Rango-importin beta, RanGTP-induced dissociation. Potency, µM (doses to about 46.1 µM), without a hit: at the top dose activity change, negative = inhibition. 0.071% of 340,000 active. AID 540253, 2011; active means falling FRET ratio curve, often poorly fitted, with flat reads before Ran was added; inconclusive means other falling curves, or compound fluorescence or quenching; inactive means flat or rising ratio curve;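 note: potency is the fitted concentration of half-maximal effect; % of control where 0% means no effect; nearly all actives have a fitted effect of over 45% in size; -100% = wells without RanGTP and RCC1; the record marks most hits as doubtful in a second field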
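Rango/importin beta premix (0.1/0.25 uM final), PBS + 1 mM DTT + 0.02% Tween-20 + 0.1% BSA; cpd 5 min RT; FRET pre-read; + RanGTP-RCC1 (0.6 uM Ran, 2 mM GTP, 0.2 uM RCC1); 45 min RT; FRET post-read, ex 430, em 486/530 nm.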
Rango complex inh = qHTS Assay for Inhibitors of Rango (Ran-regulated importin-beta cargo) - Importin beta complex formation; Rango CFP/YFP FRET sensor + importin beta, 45 min; Importin subunit beta-1 (Homo sapiens), Q14974; Potency, µM (top dose mostly 92.2 µM), inactives show at the highest dose inhibition of complex formation; 0.031% of 340,000 active; active = rising FRET ratio curve, often small or poorly fitted; inconclusive = mostly compound fluorescence or quenching in the first reads; inactive = flat curves in all reads;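 note: potency is the fitted concentration of half-maximal effect; 0% = DMSO wells and 100% = buffer wells lacking importin beta; nearly all actives have a fitted effect of over 15% in size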
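FRET biosensor Rango (snurportin 1 IBB between N-terminal EYFP and C-terminal Cerulean), 50 nM in PBS/1 mM DTT/0.02% Tween-20/0.1% BSA, preincubated 5 min RT with compound; 0.125 microM importin beta added, 45 min RT, CFP/YFP FRET ratio read.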
GLA inh pH 4.5 = qHTS Assay for Inhibitors of Human alpha-Galactosidase at pH 4.5. 230,000 tested, under 10 active. purified enzyme, 4-MU-alpha-Gal fluorescence, pH 4.5. AID 1467, 2008. activity change, negative = inhibition, % at 105 µM; inconclusive = small, poorly fitted or top-dose-only inhibition, or a rising curve; inactive = flat fitted curve, though single readings scatter; no compound was filed as active;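 note: 0% = full activity with enzyme and -100% = basal without enzyme; dose as in the result columns while the protocol names 77 µM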
Target sequence (P06280 whole entry, looked up): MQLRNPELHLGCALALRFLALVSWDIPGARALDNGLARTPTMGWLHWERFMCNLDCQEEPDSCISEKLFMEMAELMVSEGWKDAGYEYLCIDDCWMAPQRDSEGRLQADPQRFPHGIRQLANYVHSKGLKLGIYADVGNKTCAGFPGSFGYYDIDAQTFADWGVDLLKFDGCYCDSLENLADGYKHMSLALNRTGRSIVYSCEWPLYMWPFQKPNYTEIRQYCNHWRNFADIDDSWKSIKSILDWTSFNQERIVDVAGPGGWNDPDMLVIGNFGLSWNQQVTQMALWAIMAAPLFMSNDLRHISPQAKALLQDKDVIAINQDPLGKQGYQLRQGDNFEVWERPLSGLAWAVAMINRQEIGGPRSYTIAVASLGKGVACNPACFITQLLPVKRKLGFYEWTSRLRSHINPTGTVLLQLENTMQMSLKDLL
Numbers without * were called inactive; ? = inconclusive; · = no result given.

SMILES	miR-21 reporter	Rango dissoc inh	Rango complex inh	GLA inh pH 4.5
O=C(NC12CC3CC(CC(C3)C1)C2)c1ccc(-c2ccc(Br)cc2)o1	-74%	4%	-0.1%	-6
O=C(Cn1cccn1)N1CCCC(N2CCN(c3ccccc3F)CC2)C1 (centres undefined)	2%	-8%	0.4%	·
CC(=O)Nc1cccc(NC(=O)COc2nncc3ccccc23)c1	-7%	0%	-3.3%	8
O=S(=O)(NCCN1CCOCC1)c1ccc(Cl)s1	0%	-3%	-2.0%	4
CCNc1nc(NCC)n2c(SCC(=O)Nc3ccc(Br)cc3F)nnc2n1	·	3%	1.3%	·
COC(=O)c1ccc(C2NC(=S)N(c3ccccc3)C(C)=C2C(=O)Nc2ccccc2OC)cc1 (centres undefined)	-1%	-5%	?	2
O=C(CCC1CCCN(C(=O)C2CCCC2)C1)NCc1ccc(F)c(F)c1 (centres undefined)	1%	-2%	-0.2%	8
N#CCSc1nnc2ccc3ccccc3n12	-25%	-24%	2.0%	-6
S=C(c1cn(CCOc2ccccc2)c2ccccc12)N1CCCC1	6%	-24%	?	-4
Cc1c(NC(=O)CN2CCC(C(N)=O)CC2)cccc1[N+](=O)[O-]	-9%	-4%	-0.6%	5
O=C(Nc1ccc(S(=O)(=O)Nc2cnc3ccccc3n2)cc1)c1ccc(F)cc1	·	-2%	-0.4%	·
O=C(Nc1nnc(C2=COCCO2)o1)c1ccc(Cl)cc1	-14%	-1%	-0.5%	0
COCCNC(=O)c1onc(CSc2ccc(C)c(C)c2)c1C(=O)O	-5%	1%	-0.1%	-1
CCCCCCNc1c([N+](=O)[O-])c(=O)sc2ccccc12	-1%	1%	-0.5%	-6
COc1ccc(C(=O)Oc2ccc(=O)n(-c3ccccc3)n2)cc1	0%	6%	2.1%	-4

Compound profiles, from the list above. Order of screens: miR-21 reporter | Rango dissoc inh | Rango complex inh | GLA inh pH 4.5
Cc1c(NC(=O)CN2CCC(C(N)=O)CC2)cccc1[N+](=O)[O-] as listed: -9% | -4% | -0.6% | 5
O=S(=O)(NCCN1CCOCC1)c1ccc(Cl)s1 as listed: 0% | -3% | -2.0% | 4
O=C(Cn1cccn1)N1CCCC(N2CCN(c3ccccc3F)CC2)C1 (centres undefined) as listed: 2% | -8% | 0.4% | ·
S=C(c1cn(CCOc2ccccc2)c2ccccc12)N1CCCC1 as listed: 6% | -24% | ? | -4

(more compounds)
SMILES	miR-21 reporter	Rango dissoc inh	Rango complex inh	GLA inh pH 4.5
COc1ccc(CNC(=O)CCC(=O)N2CCN(S(=O)(=O)c3cc([N+](=O)[O-])ccc3C)CC2)cc1	·	0%	-0.5%	·
Cc1nn(-c2ccccc2)c(Cl)c1C(=O)NCCCCNC(=O)c1c(C)nn(-c2ccccc2)c1Cl	1%	-3%	2.9%	3
O=C(NCC1CCN(Cc2ccc(Cl)cc2)CC1)C1CCCN(c2ncnc3c2nc2n3CCCCC2)C1 (centres undefined)	?	9%	2.9%	·
COCCCNC(=O)/C(C#N)=C/c1c(N2CCN(c3ccccc3)CC2)nc2c(C)cccn2c1=O	6%	17%	1.3%	·
CCOC(=O)c1cccc(N2C(=O)C3C4C=CC(CC4)C3C2=O)c1 (centres undefined)	2%	?	5.3%	·
COc1ccc(-c2nc(CSCC(=O)NCCCN3CCCC3=O)c(C)o2)cc1OC	-5%	6%	-3.0%	·
CN1CCN(c2ccc(S(=O)(=O)N3CCCCC3)cc2NC(=O)/C=C/c2ccc(OC(F)F)cc2)CC1	·	-4%	-2.3%	·
COc1cc(/C=N/S(=O)(=O)c2ccccc2)cc(OC)c1O	-1%	2%	3.8%	·
CC(C)CC(=O)Nc1ccc2c(c1)nc(CCN1CCOCC1)n2C	-2%	-8%	-3.4%	·
COCCn1c(N)c(C(=O)NCC2CCCO2)c2nc3ccccc3nc21 (centres undefined)	7%	?	?	?
CCCOc1ccc(-c2cc(C(=O)NCC3CCCO3)c3ccccc3n2)cc1 (centres undefined)	6%	-11%	-5.8%	·
N#CC(C#N)=c1ccc2c(c1)N1C3=C(CCCC3)CC3CCCCC31N=2 (centres undefined)	-1%	-5%	1.5%	6
CCOc1ccc(N2C(=O)CC(NCCNc3ccc([N+](=O)[O-])cn3)C2=O)cc1 (centres undefined)	4%	-8%	-1.3%	·
Cc1ccc2[nH]c(CNC(=O)c3ccc(F)cc3)cc2c1	-29%	-22%	?	·
CC(C)Sc1nc2ccccc2n1CC(=O)O	-1%	-7%	1.9%	14
c1ccc(CNc2ncnc3c2cnn3-c2ccccc2)cc1	-12%	12%	3.7%	-2
C=C(C)COc1ccc2c(C)c(C)c(=O)oc2c1OCC(=C)C	2%	-20%	0.1%	-1
Cc1ccnc(NC(=O)CCC(=O)N(CC(=O)NC2CCCCC2)C2CCCC2)c1	1%	-3%	-0.9%	1
Nc1nc(CSc2nc3ccccc3s2)nc(N2CCCCC2)n1	-31%	3%	2.3%	1
CC(=O)N1CCN(Cc2nc3cc(NC(=O)NC4CCCCC4)ccc3n2C)CC1	-21%	3%	-2.1%	-11
COc1ccc(/C=C2/SC(=S)N(CCCC(=O)Nc3cccc(O)c3)C2=O)cc1	16%	10%	-3.9%	·
COc1ccc2oc(C(=O)OCc3nnc(-c4ccccc4)o3)c(C)c2c1	·	3%	5.2%	·
O=C(NC1c2ccccc2-c2ccccc21)N1CCCCC1	23%	4%	-0.7%	-8
S=c1nccc(-c2ccc(Cl)cc2)[nH]1	-22%	2%	0.8%	-5
COc1ccc(-c2cc3nc(C4CCN(C(=O)OC(C)(C)C)CC4)c(C(=O)O)cn3n2)cc1	-27%	2%	-0.9%	-3
CC1(C)C(CSc2nc3ccccc3[nH]2)C1(Cl)Cl (centres undefined)	-30%	4%	0.1%	-6
COc1ccccc1NC(=O)COc1ccc(/C=N/NC(=O)c2cccnc2)cc1	0%	20%	4.2%	·
COc1ccc(S(=O)(=O)N(CC(=O)NCCCN(C)C)c2ccc(C)cc2)cc1OC	-1%	-3%	3.7%	4
C=CCNC(=O)C1CC(=O)N(c2ccc(OCc3ccc(F)cc3)cc2)C1 (centres undefined)	-48%	-1%	-5.1%	·
CC(C)c1ccc2c(c1)C(=O)NC(C)(C)C2	-30%	1%	5.3%	-4

The closing 2 entries of the section above lead into the next:
SMILES	miR-21 reporter	Rango dissoc inh	Rango complex inh	GLA inh pH 4.5
C=CCNC(=O)C1CC(=O)N(c2ccc(OCc3ccc(F)cc3)cc2)C1 (centres undefined)	-48%	-1%	-5.1%	·
CC(C)c1ccc2c(c1)C(=O)NC(C)(C)C2	-30%	1%	5.3%	-4
OC1(C(F)(F)F)CC(c2ccc3ccccc3c2)=NO1 (centres undefined)	-39%	1%	-4.8%	-9
C#CCOCCOCCOCCNc1nc(N2CCN(C(=O)[C@H]([C@@H](C)CC)n3cc([C@@H](N)CC(C)C)nn3)CC2)nc(N2CCN(C(=O)[C@H](Cc3cc4ccccc4[nH]3)n3cc([C@@H](N)Cc4ccc(O)cc4)nn3)CC2)n1	-3%	5%	-1.0%	-10
Cc1cc(NC(=O)CSc2cn(C)c3ccccc23)no1	-7%	2%	11%	3
CC1(C)C2(C#N)C(=O)NC(=O)C12C#N (centres undefined)	·	-14%	0.6%	·
Cc1cc(C)n2nc(S(=O)(=O)NC(C)(C)C)nc2n1	-1%	0%	6.9%	-9
Cc1cc2cc(CN(Cc3cccs3)C(=S)NCC3CCCO3)c(=O)[nH]c2cc1C (centres undefined)	-2%	-8%	3.3%	-4
O=C(C(NS(=O)(=O)c1cccc2nsnc12)c1ccccc1)N1CCN(c2ccccc2)CC1 (centres undefined)	5%	6%	-5.6%	-1
Cc1cc(=O)[nH]c(N/N=C/c2cc(C)n(-c3ccccc3)c2C)n1	-62%	-12%	1.2%	-1
COc1ccccc1NC(=O)CCCN1C(=O)C(c2ccccc2)Oc2cccnc21 (centres undefined)	-8%	-4%	-0.1%	·
CCC(=O)Oc1ccc(C(=O)Nc2ccc3c(c2)OCO3)cc1	-34%	-4%	-1.3%	8
Cc1c(Br)c(=O)oc2c(Br)c(O)ccc12	10%	?	?	10
C=CCN(c1ccccc1)S(=O)(=O)c1ccc2[nH]cc(C(=O)NCCOC)c(=O)c2c1	11%	2%	3.8%	·
Cc1ccc(S(=O)(=O)Nc2ccc3c4c(cccc24)CC3)c(C)c1	·	-2%	-3.9%	·
Cc1cccc(OCCC(=O)OCC(=O)N2CCc3ccccc32)c1	-4%	2%	-1.7%	-27
Cc1ccc(Oc2ncnc3sccc23)cc1	-62%	25%	0.3%	2

Single values from the results shown.
Entry of S=c1nccc(-c2ccc(Cl)cc2)[nH]1 under Rango complex inh: 0.8%
Entry of Cc1ccc(S(=O)(=O)Nc2ccc3c4c(cccc24)CC3)c(C)c1 under Rango complex inh: -3.9%

The list goes on.
SMILES	miR-21 reporter	Rango dissoc inh	Rango complex inh	GLA inh pH 4.5
COc1ccc(NC(=S)Nc2ccc3nsnc3c2)cc1	-25%	?	6.7%	-9
Cc1cc([N+](=O)[O-])nn1CC(=O)N1CCOCC1	-3%	12%	-0.1%	0
Cc1ccc(NC(=S)Nc2cccc(S(=O)(=O)Nc3c(C)n(C)n(-c4ccccc4)c3=O)c2)cc1	-14%	-1%	2.7%	-18
Cc1ccn(C(CC(=O)c2ccc(Br)cc2)C(=O)O)n1 (centres undefined)	-1%	19%	-0.3%	3
CCC1(C)NC(=O)N(CC(=O)NCC(=O)Nc2c(C)cc(C)cc2C)C1=O (centres undefined)	·	-9%	1.9%	·
CCOc1ccc(S(=O)(=O)Nc2ccc(C(=O)NCC(c3ccco3)N3CCCCC3)cc2)cc1 (centres undefined)	·	10%	?	·
O=C(CNC(=O)c1ccco1)NNC(=O)c1ccc(Br)cc1	·	6%	-2.8%	·
O=C(Cn1c(=O)oc2ccccc21)N1CCN(c2ccc(N3CCOCC3)nn2)CC1	0%	20%	-4.1%	2
Brc1ccccc1OCCOCCOc1cccc2cccnc12	-10%	2%	0.8%	·
Cc1cc(Cl)ccc1C(=O)C1CCCN(C(=O)c2ccoc2)C1 (centres undefined)	-3%	-20%	4.1%	3
CCN(CC)S(=O)(=O)c1ccc(OC)c(NC(=O)CCc2c(C)noc2C)c1	·	13%	-1.7%	·
COc1ccccc1N1C(N)=NC(N)=NC12CCCCC2	-1%	-6%	0.8%	·
O=C(Nc1ccc2c(c1)nc1n2CCCCC1)c1cc(S(=O)(=O)N2CCOCC2)ccc1Cl	19%	-3%	1.8%	10
CCOC(=O)c1ccc(NC(=O)c2ccnn2C)cc1	·	8%	-1.3%	·
CC1=C(C(=O)OCc2ccc3c(c2)OCO3)C(c2ccc(Cl)cc2)NC(=O)N1 (centres undefined)	?	10%	0.2%	4
CCCNC(=O)c1onc(CSc2ccccc2)c1C(=O)NCCC	·	1%	-1.7%	·
CC1(C(=O)NC2CCCC2)CCC(=O)N1Cc1ccc2c(c1)OCO2 (centres undefined)	-3%	11%	-0.3%	-5
CCn1cc(C(=O)Nc2ccc(Cl)cc2Cl)cn1	·	16%	6.1%	·
CCOC(=O)C1CCN(C(=O)Cn2cnc3sc(C)c(S(=O)(=O)N4CCCCC4)c3c2=O)CC1	7%	6%	-0.5%	·
Cc1[nH]n(-c2ccc(Cl)cc2)c(=O)c1C=NC12CN3CN(CN(C3)C1)C2	-16%	23%	?	-6
CCNC(=O)C(=O)N1CCC2(CC1)OCCN2S(=O)(=O)c1ccc(C)cc1	·	-11%	0.8%	·
COc1cccc(NC(=O)CN(C)C(=O)c2cc(S(=O)(=O)Nc3ccccc3OC)ccc2C)c1	·	-7%	0.6%	·
Cc1ccc(-c2nc(CN3CCN(C(=O)C4CCCO4)CC3)cs2)cc1 (centres undefined)	8%	-1%	-0.6%	·
O=C(OCc1cccc(Cl)c1)c1cc([N+](=O)[O-])ccc1N1CCOCC1	·	4%	?	·
CC(C)(C)C(=O)Nc1sc(-c2ccccc2)cc1C(=O)O	3%	-13%	2.7%	0
CC1CCC(NC(=O)CN2C(=O)c3cccnc3Oc3ccc(Cl)cc32)CC1 (centres undefined)	-27%	-1%	-2.0%	·

Only part of the results is shown, so the mix of outcomes need not match the whole.
